Cruzain Triton = qHTS Assay for Promiscuous and Specific Inhibitors of Cruzain (with detergent) | Cruzipain (Trypanosoma cruzi), P25779 | purified cruzain, Z-FR-AMC fluorescence, 0.01% Triton | Potency, µM, without a hit: max response, negative = inhibition, most hits filed as inhibitors | 0.43% of 200,000 active | AID 1478, 2009;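 note: plate controls were neutral wells for no effect and buffer without enzyme for full effect; nearly all actives have a fitted effect of over 40% in size; top concentration of the series not given in the record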
Target sequence (P25779 123-467 limits assumed): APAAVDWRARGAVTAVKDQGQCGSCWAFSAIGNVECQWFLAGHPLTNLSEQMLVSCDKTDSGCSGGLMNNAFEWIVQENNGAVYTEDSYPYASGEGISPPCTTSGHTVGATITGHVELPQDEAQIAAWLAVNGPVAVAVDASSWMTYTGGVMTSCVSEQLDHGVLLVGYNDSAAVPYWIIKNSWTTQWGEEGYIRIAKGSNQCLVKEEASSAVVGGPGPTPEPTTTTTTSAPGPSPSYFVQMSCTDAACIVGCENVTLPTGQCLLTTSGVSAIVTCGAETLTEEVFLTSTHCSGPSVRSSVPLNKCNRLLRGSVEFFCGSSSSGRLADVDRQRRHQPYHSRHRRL
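Enzyme 1.5 nM, Z-FR-AMC 2 uM, NaOAc 100 mM pH 5.5, DTT 5 mM, Triton X-100 0.01%; 15 min RT compound preincubation; kinetic ex360/em450, 60 s delta.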
Lassa entry inh = qHTS for Inhibitors of binding or entry into cells for Lassa Virus | Lassa virus pseudotype entry inhibition, cell reporter; control for the full effect not named in the record | 1.2% of 300,000 active | Potency, µM (top dose mostly 37.9 µM), inactives show at the top dose activity change, negative = inhibition, actives largely listed as inhibitors; active means well fitted inhibition curve with a large enough effect; inconclusive means small, poorly fitted or top-dose-only effect, or effect the other way; inactive means flat fitted curve, though single readings scatter; tested in HEK293 cells; note: % is set by controls: 0 for no effect and ±100 for the full control effect; nearly all actives have a fitted effect of over 50% in size; luciferase read-out
SARS PLP yeast = qHTS of Yeast-based Assay for SARS-CoV PLP; S. cerevisiae expressing SARS-CoV PLpro, growth rescue; control for the full effect not named in the record; Potency, µM (highest dose often 32.9 µM), for inactives: at the top dose activity, positive = growth rescue; 0.19% of 330,000 active; active means well fitted rising curve with a large enough effect; inconclusive means small, poorly fitted or top-dose-only effect; inactive means no such curve, though single readings can be large or run the other way; note: 0% is about no effect; nearly all actives have a fitted effect of over 55% in size; growth read by luminescence after 48 h
NS1 inh = qHTS Assay for Inhibitors of Influenza NS1 Protein Function; S. cerevisiae slowed by influenza A NS1, growth recovery by OD600; Potency, µM (doses to about 46.1 µM), without a hit: at the top dose activity, positive = more growth; 0.4% of 270,000 active; active means well fitted rising curve with a large enough effect; inconclusive means small, poorly fitted or top-dose-only effect; inactive means no such curve, though single readings can be large or run the other way; note: nearly all actives have a fitted effect of over 50% in size
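Growth recovery, yeast-based: influenza A NS1 expressed in S. cerevisiae causes slow growth, and suppressors are detected by OD600. The parent strain without NS1 is used as positive control.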
RE007 growth inh = qHTS Assay for Inhibitors of the HIV-1 protein Vpr | 0.21% of 360,000 active | Potency, µM (doses to about 92.2 µM), inactives show at the top dose activity change, negative = less growth | S. pombe RE007 Vpr strain, BacTiter-Glo ATP luminescence, 24 h; control for the full effect not named in the record; active = well fitted falling curve with a large enough effect; inconclusive = small, poorly fitted or top-dose-only effect; inactive = no such curve, though single readings can be large or run the other way;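 note: % is set by controls: 0 for no effect and ±100 for the full control effect; nearly all actives have a fitted effect of over 50% in size; the assay follows cell death caused by Vpr and the record does not say whether a fall means rescue or toxicity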
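Fission yeast RE007 carrying one integrated HIV-1 vpr copy, seeded at OD 0.01 in PMG+AL medium with 23 nL pinned compound. Grown 24 h at 30 degrees; viability read by BacTiter-Glo luminescence after 5 min.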
Marburg entry inh = qHTS for inhibitors of binding or entry into cells for Marburg Virus; Marburg virus pseudotyped entry inhibition, cell reporter; control for the full effect not named in the record; about a third of the inactives were read at about 46 µM; Potency, µM (top dose mostly 37.8 µM), inactives show at the top dose activity change, negative = inhibition, usual class: inhibitors; 1.8% of 300,000 active; AID 540276, 2011; active = well fitted inhibition curve with a large enough effect; inconclusive = small, poorly fitted or top-dose-only effect, or effect the other way; inactive = flat fitted curve, though single readings scatter; tested in HEK293 cells; about a fifth of its hits are not listed in these tables; note: % is set by controls: 0 for no effect and ±100 for the full control effect; luciferase read-out
Cruzain noTriton = qHTS Assay for Promiscuous and Specific Inhibitors of Cruzain (without detergent) | purified cruzain, Z-FR-AMC fluorescence, no detergent | Potency, µM, without a hit: max response, negative = inhibition, hits mostly inhibitors | 2.3% of 200,000 active;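 note: plate controls were enzyme without inhibitor for no effect and buffer without enzyme for full effect; nearly all actives have a fitted effect of over 40% in size; top concentration of the series not given in the record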
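Purified cruzain at 1.5 nM, pre-incubated 15 min with compound at room temperature in 100 mM sodium acetate pH 5.5, 5 mM DTT, 0.00005% Triton X-100. Reaction started with 2 uM Z-FR-AMC; AMC fluorescence increase over 60 s gives rate.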
2A StopGo = High Throughput Screening for Foot and Mouth Disease Virus Antivirals; AID 1159524, 2015; 1.2% of 410,000 active; human cells with a luciferase reporter of 2A StopGo recoding; control for the full effect not named in the record; Potency, µM (doses to about 57.9 µM), without a hit: top-dose signal change, negative = less light; active = well fitted falling curve with a large enough effect; inconclusive = small, poorly fitted or top-dose-only effect; inactive = no such curve, though single readings can be large or run the other way; tested in HEK293T cells; note: % is set by controls: 0 for no effect and ±100 for the full control effect; nearly all actives have a fitted effect of over 45% in size; luciferase light after 4 h
Active calls of the source: *; ? = inconclusive; . = no result given; & = joins results of further samples; [ ] = remark or other dose. Unless noted, calls come from the whole dose curve; as a rule, active = well fitted curve in the direction sought with a large enough effect; inconclusive = small, poorly fitted or top-dose-only effect, or another doubt; inactive = no such curve, though single readings can be large; an effect the other way counts as inactive or inconclusive. Potency is the fitted concentration of half-maximal effect.

Preview, two compounds:
SMILES	Cruzain Triton	Lassa entry inh	SARS PLP yeast	NS1 inh	RE007 growth inh	Marburg entry inh	Cruzain noTriton	2A StopGo
CSC1=C(C#N)C(c2ccccc2Cl)C(C(=O)c2cccs2)C(O)(C(F)(F)F)N1 (stereo not given)	-4.6%	-6%	17%	-29%	-5%	1%	-1%	?
Cc1ccc(C(NC(=O)c2ccccc2)C(Cl)Cl)cc1 (stereo not given)	-3.2%	19%	-14%	-11%	6%	?	1%	0%

The list itself, previewed entries included:
SMILES	Cruzain Triton	Lassa entry inh	SARS PLP yeast	NS1 inh	RE007 growth inh	Marburg entry inh	Cruzain noTriton	2A StopGo
CSC1=C(C#N)C(c2ccccc2Cl)C(C(=O)c2cccs2)C(O)(C(F)(F)F)N1 (stereo not given)	-4.6%	-6%	17%	-29%	-5%	1%	-1%	?
Cc1ccc(C(NC(=O)c2ccccc2)C(Cl)Cl)cc1 (stereo not given)	-3.2%	19%	-14%	-11%	6%	?	1%	0%
CCN1CCN(Cc2nc3c(c(=O)[nH]c(=O)n3C)n2Cc2ccccc2Cl)CC1	-4.6%	.	-25%	1%	-1%	.	-2%	?
O=C(NCc1ccccc1F)C(=O)NCC(c1ccco1)S(=O)(=O)c1cccs1 (stereo not given)	-2.7%	?	.	.	.	.	0%	-13%
COc1cc(-c2nc(CCNC(=O)c3ccco3)cs2)cc(OC)c1OC	.	.	-3%	-4%	-2%	.	.	-10%
Cc1cc(S(=O)(=O)N2CCOCC2)ccc1OCC(=O)NCCN1CCOCC1	.	6%	2%	-2%	0%	-8%[46.1 µM]	.	3%
CCc1ccc(NCc2cc3ccc(OC)cc3n(CC(=O)Nc3ccc(C(C)C)cc3)c2=O)cc1	-2.1%	-1%[46.1 µM]	.	.	.	.	?	-2%
CCCC(=O)c1ccc(N2CCN(C(=O)OCC)CC2)c(F)c1	-1.6%	16%	3%	-22%	12%	22%	10%	.
Cc1ccc(NCC(=O)N/N=C/c2ccc(-c3cccc(C(F)(F)F)c3)o2)cc1	-13%	?	5%	-3%	-20%	-1%	-10%	-15%
Cc1ccc(-c2nn(-c3ccc(F)cc3)cc2C(=O)NCC(c2cccs2)N2CCOCC2)cc1 (stereo not given)	.	-4%	4%	.	19%	-11%[46.1 µM]	.	-27%
O=C(COC(=O)c1cc2ccccc2oc1=O)Nc1ccc(F)cc1F	.	.	-2%	-3%	1%	.	.	17%
CC(C)CC(N=C1NC(C)(C)Cc2ccccc21)C(=O)O (stereo not given)	-3.0%	-3%	3%	16%	13%	4%	0%	2%
COc1ccc2c(c1)c(CC(=O)Nc1cc(C)ccc1C)c(C)n2C(=O)c1ccc(Cl)cc1	-4.6%	?	8%	?	22%	?	13µM*	8%
O=C(NCc1ccccc1)N1CCC(CO)(CCc2ccccc2)CC1	.	13%[46.1 µM]	-1%	-6%	2%	11%[46.1 µM]	.	-17%
CCOC(=O)N1CCC(N2CCN(S(=O)(=O)c3ccc(NC(C)=O)cc3)CC2)CC1	4.3%	-3%	-5%	-8%	3%	0%&3%	-4%	.
Cc1ccccc1Cn1nnc2c(=O)[nH]c(C3CCN(C(=O)c4ccccc4)CC3)nc21	-2.0%	-29%[46.1 µM]	.	.	.	0%[46.1 µM]	6%	-11%
COC(=O)c1c(N(S(C)(=O)=O)S(C)(=O)=O)sc2c1CCN(c1ncc(C(F)(F)F)cc1Cl)C2	-4.6%	?	-1%	11%	-1%	-2%[46.1 µM]	6%	-29%
O=C1C=Cc2ccccc2/C1=C/c1[nH]c(=O)[nH]c1O	.	.	1%	-2%	1%	.	.	14%
O=C(Oc1cccc2cccnc12)c1ccc(Br)o1	-1.5%	-2%	2%	-22%	-8%	28%[46.1 µM]	13%	-17%
COCc1c(C(=O)N/N=C/c2ccco2)nnn1-c1nonc1N	.	.	1%	2%	8%	-10%[46.1 µM]	.	5%
CC(C)C1C(C#N)=C(N)Oc2n[nH]c(C(C)(C)C)c21 (stereo not given)	-1.5%	-5%	-3%	-3%	13%	-10%	-7%	-24%
Cc1cccc(N2C(S)=C(C#N)C(=O)NC2c2cccs2)c1 (stereo not given)	-11%	-10%	14%	3%	1%	15%	8%	-27%
CCn1c2ccccc2c2nnc(N3CCN(c4cccc(C)c4C)CC3)nc21	-8.2%	-10%[46.1 µM]	.	.	.	.	11%	-6%
COc1ccccc1/C=C/CN1CCN(Cc2ccc(F)cc2)C(CCO)C1 (stereo not given)	.	-16%	0%	4%	-21%	-15%[46.1 µM]	.	-10%
Cc1cccc(-c2noc(CN(C(C)C)S(=O)(=O)c3ccc(Br)cc3)n2)c1	-6.9%	-16%[46.1 µM]	.	.	.	7%[46.1 µM]	-25%	-15%

Exported bar-delimited: part of the list above.
molecule | Cruzain Triton | Lassa entry inh | SARS PLP yeast | NS1 inh | RE007 growth inh | Marburg entry inh | Cruzain noTriton | 2A StopGo
Cc1ccc(C(NC(=O)c2ccccc2)C(Cl)Cl)cc1 (stereo not given) | -3.2% | 19% | -14% | -11% | 6% | ? | 1% | 0%
CCN1CCN(Cc2nc3c(c(=O)[nH]c(=O)n3C)n2Cc2ccccc2Cl)CC1 | -4.6% | . | -25% | 1% | -1% | . | -2% | ?
O=C(NCc1ccccc1F)C(=O)NCC(c1ccco1)S(=O)(=O)c1cccs1 (stereo not given) | -2.7% | ? | . | . | . | . | 0% | -13%
COc1cc(-c2nc(CCNC(=O)c3ccco3)cs2)cc(OC)c1OC | . | . | -3% | -4% | -2% | . | . | -10%
Cc1cc(S(=O)(=O)N2CCOCC2)ccc1OCC(=O)NCCN1CCOCC1 | . | 6% | 2% | -2% | 0% | -8%[46.1 µM] | . | 3%
CCc1ccc(NCc2cc3ccc(OC)cc3n(CC(=O)Nc3ccc(C(C)C)cc3)c2=O)cc1 | -2.1% | -1%[46.1 µM] | . | . | . | . | ? | -2%
CCCC(=O)c1ccc(N2CCN(C(=O)OCC)CC2)c(F)c1 | -1.6% | 16% | 3% | -22% | 12% | 22% | 10% | .

In another format: results already given
molecule,Cruzain Triton,Lassa entry inh,SARS PLP yeast,NS1 inh,RE007 growth inh,Marburg entry inh,Cruzain noTriton,2A StopGo
CCn1c2ccccc2c2nnc(N3CCN(c4cccc(C)c4C)CC3)nc21,-8.2%,-10%[46.1 µM],.,.,.,.,11%,-6%
O=C(COC(=O)c1cc2ccccc2oc1=O)Nc1ccc(F)cc1F,.,.,-2%,-3%,1%,.,.,17%

The list goes on.
SMILES	Cruzain Triton	Lassa entry inh	SARS PLP yeast	NS1 inh	RE007 growth inh	Marburg entry inh	Cruzain noTriton	2A StopGo
Cc1cc(S(=O)(=O)N2CCCCC2)ccc1OCC(=O)N1CCCC1	.	9%	1%	1%	-16%	4%	.	-15%
CCOC(=O)c1nnn(-c2nonc2N)c1CNC(C)C	0.5%	16%	-2%	1%	5%	-2%	-15%	-11%
COCCNC(=O)Cn1nc(-c2ccccc2)c2ccccc2c1=O	0.5%	3%[46.1 µM]	-1%	-2%	.	.	-6%	-11%&-5%
CSc1nc(C)cc(SCC(=O)Nc2ccccc2)n1	-3.1%	1%	1%	-52%	18%	-18%	-9%	-18%
Cc1ccc(N2C(=O)Nc3ccccc3C2(O)C(=O)N2CCN(c3ccccn3)CC2)cc1C (stereo not given)	.	-3%	-4%	.	17%	-5%	.	2%
CCCCN(CCCC)C(=O)CSc1nnc(-c2cc(OC)c(OC)c(OC)c2)o1	3.7%	-28%	-5%	-28%	6%	?	?	?
N#Cc1c(N)nc(SCC(=O)NCCc2ccccc2)c(C#N)c1-c1cccs1	-2.6%	-13%	0%	12%	3%	?	?	-23%
O=C(CCC(=O)Nc1ccc(Br)cc1)N/N=C/c1ccccc1F	.	-4%	0%	1%	-17%	8%	.	5%
Cc1nc2nc(NCc3cccc(Br)c3)[nH]n2c(=O)c1Cc1ccccc1	-0.6%	10%[46.1 µM]	.	.	.	0%[46.1 µM]	-10%	-17%
O=C(NCc1cccs1)C1CC(c2ccccc2O)=NO1 (stereo not given)	1.2%	-21%	-6%	0%	13%	-25%	2%	19%
O=C(O)c1cccc(NC(=S)NC(NC(=O)c2ccco2)C(Cl)(Cl)Cl)c1 (stereo not given)	.	-16%[46.1 µM]	0%	6%	-10%	20%[46.1 µM]	.	-2%
Cn1c(SCC(=O)N/N=C/c2ccncc2)nc2ccccc21	.	15%	1%	3%	7%	-5%	.	-17%
N#Cc1ccc(COC(=O)c2cccnc2Cl)cc1	.	6%	1%	-6%	-18%	-2%[46.1 µM]	.	28%
COC(=O)CCC(=O)OC1(C)C(=O)C=C2C=C(c3ccsc3)OC=C2C1=O (stereo not given)	-0.1%	.	.	.	-6%	.	0%	-14%
C[n+]1cn(CC(O)COCc2ccccc2)c2ccccc21 (stereo not given)	1.5%	11%	-5%	7%	-7%	4%	1%	-7%
CN(C(=O)COC(=O)c1ccc(Br)c(S(=O)(=O)N2CCOCC2)c1)C1CCCCC1	.	6%	1%	.	14%	?	.	?
COc1ccc(Cl)cc1S(=O)(=O)Nc1ccc(Cl)cn1	.	.	2%	2%	0%	.	.	88%[activator]
CCOC(=O)c1c(C)[nH]c(C)c1C(=O)COC(=O)c1ccc(OC)c(OC)c1	.	16%[46.1 µM]	18%	.	15%	0%[46.1 µM]	.	-7%
Cc1cc(C)cc(N2C(=O)CSC23C(=O)N(Cc2c(F)cccc2Cl)c2ccccc23)c1 (stereo not given)	1.5%	?	.	.	.	.	?	-27%
N#CC(Br)Br	5.8%	.	-11%	.	-10%	.	-5%	-29%
Cc1nc(=O)c(-c2ccccc2)c(C)n1-c1cccc(/C=C/C(=O)O)c1	.	.	1%	1%	8%	.	.	-7%

Screening results: PubChem BioAssay, National Center for Advancing Translational Sciences (NCATS)

Rows were taken by chance, and some 4.7% of all compounds hit somewhere here.
